Source: PubChem BioAssay
VACV Venus inh – inhibitors of vaccinia virus (Venus reporter). Vaccinia virus Venus reporter expression, fluorescence. Potency, µM (highest dose often 36.5 µM), for inactives: at the top dose activity change, negative = inhibition, usual class: inhibitors. 330,000 tested, 0.46% active; active means well fitted inhibition curve with a large enough effect; inconclusive means small, poorly fitted or top-dose-only effect; inactive means no such curve, though single readings can be large or run the other way; tested in A549 cells; also: nearly all actives have a fitted effect of over 30% in size; inactives centre near -10
Vaccinia mCherry – vaccinia inhibition (mCherry reporter) | Vaccinia virus mCherry reporter infection, fluorescence; about a quarter of the inactives have no number | Potency, µM (highest dose often 36.5 µM), for inactives: at the highest dose activity change, negative = inhibition, most hits filed as inhibitors | 310,000 tested, 0.63% active | AID 720579; active = well fitted inhibition curve with a large enough effect; inconclusive = small, poorly fitted or top-dose-only effect; inactive = no such curve, though single readings can be large or run the other way; tested in A549 cells; also: nearly all actives have a fitted effect of over 35% in size; inactives centre near -10
The depositor's hits bear a star; i = inactive; u = inconclusive; x = not tested or not shown; [ ] = remark or other dose. % is scaled to controls: 0 for no effect and ±100 for the full control effect; potency is read from the fitted curve at half-maximal effect.

Fields: VACV Venus inh, Vaccinia mCherry
CC(=O)c1cc2c(C)cc(=O)oc2cc1O
 : -9%, -6%
CC(CN1CCN(Cc2ccccc2)CC1)OC(=O)c1ccco1 (stereo not given)
 : 6%, i
CCOc1ccc(CCNC(=O)CCSCc2cccc(Cl)c2)cc1OCC
 : -8%, -3%
COc1ccc(C(=O)CSc2ccc(-c3ccco3)nn2)cc1
 : 7%, -12%
N#Cc1c(NCCO)ccc([N+](=O)[O-])c1NCCO
 : -5%, i
O=C(c1cc([N+](=O)[O-])ccc1N1CCOCC1)N1CCN(c2ccc([N+](=O)[O-])cc2)CC1
 : -29%, -25%
COc1ccc(/C=C/C(=O)N[C@@H](C)C(=O)O)cc1
 : -9%, -4%
Nc1ccc(-n2c(N)c(C(=O)NCc3ccc4c(c3)OCO4)c3nc4ccccc4nc32)cc1
 : -26%, u
Cc1cccn2c(=O)c(C=Nc3ccccc3)c(NCCO)nc12
 : 0%, -10%
CCOC(=O)C1CCCN(C(=O)/C(=C/c2ccco2)NC(=O)c2ccccc2)C1 (stereo not given)
 : 1%, -2%
O=C(CCCCCN1C(=O)CCC1=O)Nc1ncn[nH]1
 : -9%, x
CCOC(=O)C(CC)n1cnc2c(cnn2-c2ccc(Cl)cc2)c1=O (stereo not given)
 : -10%, -12%
O=C(c1cn(CC(=O)N2CCCC2)c2ccccc12)C1CCCCC1
 : -26%, -5%
COCCCn1c(SCC(=O)NC2CCCC2)nnc1-c1cccs1
 : 0%, 16%
Oc1c(Cl)cc(Cl)cc1C=Nc1ccc(Br)cc1
 : -14%, -9%[1.46 µM]
CC12CCC(C(=O)NCCN3CCCCC3)(CC1=O)C2(C)C (stereo not given)
 : 6%, -4%
COc1ccccc1N1CCN(C(=O)CN(c2cc(C)cc(C)c2)S(C)(=O)=O)CC1
 : -18%, -6%
COc1ccc(C(CNC(=O)c2ccc(N3CCCC3=O)cc2)N2CCCC2)cc1 (stereo not given)
 : -17%, -24%
O=C(Nc1ccccn1)c1ccc(C(=O)c2ccccc2)cc1
 : -9%, -9%
Cc1cc(F)ccc1S(=O)(=O)Nc1ccccc1C(=O)NC1CCN(Cc2ccccc2)CC1
 : 10µM*, u
COc1ccc(S(=O)(=O)N2CCCC2CNC(=O)C(=O)Nc2ccc(F)cc2)cc1 (stereo not given)
 : -1%, -14%
COC(C(=O)Nc1ccnn1C1CCN(Cc2nccs2)CC1)c1ccccc1 (stereo not given)
 : -6%, -15%
Nc1ncc(C(=O)O)c(-c2ccccc2)n1
 : -10%, -9%
CC(C)N(Cc1ccccc1)C(=S)Nc1ccc(OC(F)F)cc1
 : -16%, -21%
C=CCOC(=O)C1=C[C@H](C2CCCCC2)[C@@H](CCCO)[C@H](OCC)O1
 : -15%, i
CCOc1ccc(C(=O)N(CC(=O)Nc2cccc(C)c2C)CC2CCCO2)cc1OC (stereo not given)
 : -11%, -13%
O=C(CN1C(=O)c2ccccc2C1=O)NC1CCCCCC1
 : -13%, i
CCOc1ccc(CNC(=O)CSc2c3c(nc4cc(Cl)ccc24)CCCC3)cc1
 : -13%, -5%
Cc1ccc2cccc(OCCOCCOc3ccccc3Br)c2n1
 : -3%, -16%
Cc1cc(C(=O)N/N=C/c2ccc3c(c2)OCO3)c(C)o1
 : 0%, -4%

A section of the results above:
Fields: VACV Venus inh, Vaccinia mCherry
CC(=O)c1cc2c(C)cc(=O)oc2cc1O
 : -9%, -6%
CC(CN1CCN(Cc2ccccc2)CC1)OC(=O)c1ccco1 (stereo not given)
 : 6%, i
CCOc1ccc(CCNC(=O)CCSCc2cccc(Cl)c2)cc1OCC
 : -8%, -3%
COc1ccc(C(=O)CSc2ccc(-c3ccco3)nn2)cc1
 : 7%, -12%

Next entries
Fields: VACV Venus inh, Vaccinia mCherry
CC(=O)N[C@@H](CSC/C=C(\C)CCC=C(C)C)C(=O)O
 : -16%[3.33 µM], -4%[3.33 µM]
OCC(O)[C@@H](O[C@H]1O[C@H](CO)[C@@H](O)[C@H](O)[C@H]1O)[C@H](O)[C@@H](O)CO (stereo not given in full)
 : -18%, -1%
COc1ccc(N2CCN(C(=O)C(C)n3nc(C)c4sc5ccccc5c4c3=O)CC2)cc1 (stereo not given)
 : 0%, -12%
COc1ccc(C2c3[nH]c4ccccc4c3C[C@H]3C(=O)N(c4ccccc4C(=O)N4CCC[C@@H]4C(=O)O)C(=O)N23)cc1 (stereo not given in full)
 : 13%, 2%
COc1ccccc1-c1nccc(-n2ccnc2)n1
 : -2%, -14%
COc1ccc(Oc2ccc(/C=C/C(=O)c3cccc(OC)c3)cc2[N+](=O)[O-])cc1
 : -2%, -26%
Cc1cccc(C)c1NC(=O)CN(C)C(=O)c1ccccc1C(=O)N(C)Cc1ccccc1
 : -12%, i
O=C(C[n+]1ccncc1)c1ccc(Br)cc1
 : -2%, -19%
CCc1nccn1CCC(=O)N1CCc2c([nH]c3ccccc23)C1CC(C)C (stereo not given)
 : -7%[7.34 µM], -12%[7.34 µM]
Cc1ccc(C(=O)Nc2ccc(S(=O)(=O)Nc3cnc4ccccc4n3)cc2)cc1
 : 0%, -9%
Cc1cc(C)c2c(c1)cc(C)c1nnc(SCC(=O)N3CCCc4ccccc43)n12
 : -1%, i
CC(=O)c1ccc(S(=O)(=O)N2CCC(Oc3ccc(-n4cnnn4)cc3)CC2)cc1
 : -14%, -7%
Cc1cc(N)n(-c2ccc(C)c(C)c2)n1
 : -19%, u
COc1ccccc1-c1cc(C(=O)NCc2cccs2)no1
 : -29%, -24%
O=C(NCCC1=CCCCC1)C1CCN(C(=O)N2CCOc3ccccc32)CC1
 : -19%, -13%
CCOc1ccc(-c2nc(CSCC(=O)NC3CCN(Cc4ccccc4)CC3)c(C)o2)cc1
 : u, u
Cc1nn(C(=O)c2cccs2)c(N)c1-c1ccccc1
 : 4%, i
COc1ccc(-c2nc3ccc(C)cc3c(=O)o2)cc1OC
 : -6%, -14%
CC(C)NC(=O)c1ccc(N2CCOCC2)nc1
 : -9%, -3%
COc1ccc(NC(=O)CN(C)C(=O)CNC(=O)c2ccc(C)s2)cc1
 : -19%, -22%
O=C(CSc1nccn1C1CCCC1)Nc1ccc(C(F)(F)F)cc1
 : -19%, -17%
Cc1ccc(C(=O)COC(=O)CCC(=O)Nc2ccccc2Cl)cc1[N+](=O)[O-]
 : -1%, -13%
CC(NC(=O)c1ccc(NC(=O)c2nsc3ccccc23)cc1)c1ccccc1 (stereo not given)
 : -13%, -10%
CCCCNC(=O)CSc1nc2cc3c(cc2c(=O)n1CCCC(=O)NCc1ccc2c(c1)OCO2)OCO3
 : -8%, -7%
Cc1ccc(O)c(C2=NOC(O)(C(F)(F)C(F)F)C2)c1 (stereo not given)
 : -16%, -16%
OCCOc1nnnn1-c1ccccc1
 : -12%, x
COc1ccccc1CC(NC(C)=O)C(=O)NC1CCN(c2nnnn2-c2ccccc2)CC1 (stereo not given)
 : -12%, -14%
CN(C)c1ccc(NC(=O)CN2CCC(NC(=O)C3CCCCC3)CC2)cc1
 : -4%, -3%
O=C(CSc1ccc(-c2ccccc2)nn1)N1CCCCC1
 : -5%, -13%
CC(C)Nc1nnc(SCC(=O)c2c(N)n(Cc3ccccc3)c(=O)n(C)c2=O)s1
 : -30%, x
COc1ccc(OC)c(NC(=O)c2ccc(-c3csc(C)n3)cc2)c1
 : -16%, -20%
COc1ccc(-c2cc(=O)oc3c(C)c(OC(C)C(=O)N4C[C@H]5C[C@@H](C4)c4cccc(=O)n4C5)ccc23)cc1 (stereo not given in full)
 : -17%, -23%
O=C(COc1ccccc1Cl)Nc1nc(-c2cccs2)cs1
 : -10%, x
O=C(Nc1nnc(SCc2ccccc2Cl)s1)C1COc2ccccc2O1 (stereo not given)
 : -12%, -12%
CCN(CC)CCOC(=O)c1ccc(NC(=O)CCCN2C(=O)/C(=C/c3cccs3)SC2=S)cc1
 : -28%, -16%
CC(=O)Nc1c(C)ccc([N+](=O)[O-])c1C
 : -6%, i
COc1ccc(C(C)(C)C)cc1NC(=O)c1cccc(S(=O)(=O)N2CCN(C(C)=O)CC2)c1
 : -14%, i
CCOc1ccc(N(CC(=O)NC2CCCCC2)S(=O)(=O)c2ccc(C)cc2)cc1
 : -5%, -11%
Cc1oc2cc3oc(=O)c(CCC(=O)N4C[C@H]5C[C@@H](C4)c4cccc(=O)n4C5)c(C)c3cc2c1C
 : -2%, i
COCCCN1C(=O)C(CC(=O)NCCc2ccccn2)CC(C(=O)N(C(C)C)C(C)C)=C1C (stereo not given)
 : -7%, 21%
O=C(CCN1C(=O)/C(=C/c2ccc(Cl)cc2)SC1=S)Nc1ccc(C(=O)O)cc1
 : -5%, 1%
CC(OC(=O)c1nn(C)c(=O)c2ccccc12)C(=O)Nc1ccc(S(N)(=O)=O)cc1 (stereo not given)
 : -8%, -13%
O=c1c2ccccc2nc(/C=C/c2ccccc2)n1-c1ccc(O)cc1
 : -17%, i
Cc1ccc2nc(CSc3nnc(NC(=O)c4ccc(C(C)(C)C)cc4)s3)cc(=O)n2c1
 : -12%, i
O=C(CNC(=O)c1ccccc1F)OCC(=O)c1c[nH]c2ccccc12
 : -8%, i
CN1CCN(c2ccc([N+](=O)[O-])cc2C(=O)Nc2ccccc2)CC1
 : -2%, -11%
CC(C)Oc1ccc(CNC(=O)CCCN2C(=O)CCn3nc(-c4cccn4C)cc32)cc1
 : 5%, -9%
C[C@]12c3[nH]c4ccccc4c3CCN1C(=O)C(CC(=O)NCCCn1ccnc1)C[C@@H]2C(=O)N1CCOCC1 (stereo not given in full)
 : -11%, i
NC(=O)COC(=O)c1ccc2c(c1)S(=O)(=O)N=C1CCCCCN12
 : 7%, i
Cc1cc(N)n(-c2ccc(S(N)(=O)=O)cc2[N+](=O)[O-])n1
 : -4%, -1%
CC(N=C1NS(=O)(=O)c2ccccc21)c1ccccc1 (stereo not given)
 : -1%, -10%
O=C1CCCC2=C1C(c1ccc(O)c(Br)c1)C1=C(CCCC1=O)N2c1ccccc1
 : -6%, i
CN1CCN(CCCN2c3ccccc3Sc3ccc(C(F)(F)F)cc32)CC1
 : u, u
Cc1ccc2nc(N(Cc3cccnc3)C(=O)C3CCCCC3)sc2c1
 : -17%, -11%
CCC1(C)NC(=O)N(CC(=O)N2N=C(c3ccccc3)CC2c2ccc(OC)cc2)C1=O (stereo not given)
 : -18%, -14%
Cc1ccc(Cl)cc1-n1ncc2c(Nc3cccc(C)c3C)ncnc21
 : -20%, -15%
O=C(CSc1nc2ccccc2c(=O)n1-c1ccccc1F)NC1CC1
 : 0%, -24%
CSCCC(NC(=O)c1ccccc1Cl)C(=O)Nc1ccc(C)c(S(=O)(=O)N2CCOCC2)c1 (stereo not given)
 : -9%, -11%
CCC1CC2CC(NC(C)=O)C1C2 (stereo not given)
 : -5%, x
CCc1cnc2c(c1SCC(=O)NCc1ccc(F)cc1)c(=O)n(C)c(=O)n2C
 : -9%[7.34 µM], -11%[7.34 µM]

Next structures.
Fields: VACV Venus inh, Vaccinia mCherry
CC(C)CNC(=O)NC(=O)COC(=O)Cn1cnc2ccccc2c1=O
 : -9%, -14%
NS(=O)(=O)c1ccc(CNC(=O)c2cccc(Oc3ccccc3)c2)cc1
 : -14%, -12%
COc1ccc(CCNC(=O)C2CCN(S(=O)(=O)c3cccc4nsnc34)CC2)cc1OC
 : -10%, i
COc1ccc(S(=O)(=O)N(C)C[C@H]2Oc3ccc(NS(=O)(=O)c4cccs4)cc3C(=O)N([C@H](C)CO)C[C@@H]2C)cc1
 : -12%, i
CC(C)(C)OC(=O)N1C(=O)[C@](OC(=O)c2ccccc2)(c2ccccc2)c2cccc(F)c21
 : -3%, 0%
Oc1ccc2ccccc2c1CN1CCOCC1
 : -11%, u
Nc1ccc(/C=C/c2cc(Cl)nc3ccccc23)cc1
 : -14%, -5%
CC1(C)C2CCC(C2)C1(C)NC(=O)CN1CCOCC1 (stereo not given)
 : -10%, -5%
CCC1CCCCN1C(=O)CSc1nc(-c2ccc(OC)cc2)cc(C(F)(F)F)n1 (stereo not given)
 : -5%, -11%
O=S(=O)(c1ccc(-c2ccon2)s1)N1CCN(c2ccncc2)CC1
 : 0%[7.34 µM], -24%[7.34 µM]
Cc1ccc(CN(c2ccc(C(=O)N3CCOCC3)cc2)S(C)(=O)=O)cc1
 : -4%, x
O=C(CSC(=S)N1CCOCC1)c1cc(Br)cc(Br)c1O
 : 187%[activator], 20%
COc1cc(NC(=O)c2cnn3c(C)cc(C)nc23)c(OC)cc1Cl
 : 0%, 7%
Cc1cc(=O)oc2cc(OCC(=O)OCC(=O)N(CCC#N)c3ccccc3)ccc12
 : -4%, 0%
CCC(=O)Nc1ccc(-c2nnc3c4ccccc4c(C)nn23)cc1
 : 7%, -2%
COc1cc(-c2nc(Cn3nnc(C(=O)Nc4ccc(C)cc4C)c3C)c(C)o2)cc(OC)c1OC
 : -17%, -23%
COCOc1cccc(CN2CCC2(C)C(=O)Nc2ccc(C)cc2)c1 (stereo not given)
 : -2%, 2%
Fc1ccc(C(OCCN2CCCC2)c2ccc(Br)cc2)cc1 (stereo not given)
 : -15%, i
CC1(C)N=C(C(=O)c2ccccc2)N(O)C1(C)O (stereo not given)
 : 3%, 2%
CC(C)COc1ccc(S(=O)(=O)n2cc(F)c(=O)[nH]c2=O)cc1
 : -10%, -14%
CN1CCN(C(=O)C2(NC(=O)Nc3ccccc3Cl)CCCCC2)CC1
 : -1%, x

No enrichment for hits; about 0.82% have a hit in one of these screens.
